# High-throughput results from PubChem.
# GIV-Gai inh: inhibitors of GIV peptide binding to Galpha-i3, primary screen, biochemical, fluorescence polarization, FITC-GIV GBA peptide, rat Galphai3 | Guanine nucleotide-binding protein G(i) subunit alpha-3 (Rattus norvegicus), P08753 | 90 min; hits give low values; scaled: aluminum fluoride 0%, vehicle 100% | percent of control (FP), % (no concentration beside the values) | 210,000 tested, 0.42% active | AID 1224905, 2016;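 active = replicate mean at 85% of control or lower, very high polarization wells dropped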;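 note: wells of about 15 µL received 100 nL stock; the first replicate is given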
# Target sequence (P08753 whole entry, looked up): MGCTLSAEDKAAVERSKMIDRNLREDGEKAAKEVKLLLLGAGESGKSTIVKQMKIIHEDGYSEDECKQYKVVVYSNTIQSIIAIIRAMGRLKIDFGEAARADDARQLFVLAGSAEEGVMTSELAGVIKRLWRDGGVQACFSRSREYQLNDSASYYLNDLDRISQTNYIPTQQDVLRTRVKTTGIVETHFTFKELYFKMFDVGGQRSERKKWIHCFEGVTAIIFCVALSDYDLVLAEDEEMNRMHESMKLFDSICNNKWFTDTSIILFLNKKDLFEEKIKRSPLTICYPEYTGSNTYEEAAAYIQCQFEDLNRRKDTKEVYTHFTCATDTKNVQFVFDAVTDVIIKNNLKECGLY
# Sa growth inh: S. aureus growth inhibition at 42 and 30 °C, primary screen, LtaS inhibitor project, RN4220, two temperatures | OD600, 20 h, 42 °C; hits give low values | 170,000 tested, 0.53% active | relative growth, % (concentration not given with the values);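 active = growth at 42 °C up to 50% and 20 or more points under that at 30 °C, or under 10% at both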;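 note: 300 nL library stock went into each well; scaled to the means of positive and negative controls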
# HCMV UL50-53 inh: inhibitors of HCMV UL50-UL53 interaction, biochemical, HTRF. normalized percent inhibition. inhibition, % (no concentration beside the values). 190,000 tested, 0.15% active. AID 1918969, 2023;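 active = both replicates at 50% or more, plus weaker picks with an unusually low signal ratio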;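 note: stock transfer was 100 nL into about 20 µL; 0% = negative control wells and 100% = wells with untagged competitor protein; inactives centre near -12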
# Sa growth inh second temp: further read-out of Sa growth inh, marked with its call; relative growth, %; measured here: growth at 30 °C;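 optical density after 20 h as mean of two plates; 100% = untreated growth and lower means inhibition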
# An asterisk follows results filed as active; / = not tested or not shown. Rows are unselected; 0.79% or so of the library scored in one or more.
SMILES,GIV-Gai inh,Sa growth inh,Sa growth inh second temp,HCMV UL50-53 inh
O=C(O)CCc1ccsc1,/,103,95,10
CC1(C)Cc2c(sc(N3CCCC3=O)c2C#N)C(C)(C)N1,/,98,93,-20
CCN(CC)c1cc(Nc2ccc(NS(=O)(=O)c3c(C)noc3C)cc2)nc(C)n1,105,/,/,-12
CCc1cccc(C)c1NC(=O)C(CC)n1nc(C)c2c(C)n(-c3ccccc3)nc2c1=O (stereo not given),105,84,85,/
CCc1cc(C(=O)N2CCc3ccccc3C2)no1,102,/,/,-21
CSc1n[nH]c(NC(=O)c2ccc(C(C)(C)C)cc2)c1-c1ccccn1,105,96,92,-3
COc1ccc(-c2cn3nc(N4CCCC(C(=O)Nc5cccc(OC)c5)C4)sc3n2)cc1 (stereo not given),103,116,88,/
COc1ccc(/C=C2\CC/C(=C\c3ccc(OC)c(Cn4cccn4)c3)C2=O)cc1Cn1cccn1,99,120,91,/
CCN(c1cccc(C)c1)S(=O)(=O)c1nnc(NC(=O)C2CCCCC2)s1,101,93,91,-14
CC(C)NC(=O)CN,/,98,96,-6
COCCNC(=S)N1CCC(C(=O)c2ccc(F)cc2)CC1,104,74,77,-6
C=CCn1c(SCC(C)C)nc2sc3c(c2c1=O)CC(C)(C)OC3,100,108,83,/
COc1ccccc1N1CCN(c2ccc(=O)n(CC(=O)N3CCCC3)n2)CC1,112,/,/,-45
Cc1c(CNCC2CCCO2)c(C(=O)O)c(C)n1Cc1cccc(F)c1 (stereo not given),102,/,/,-29
CNc1csc(C)c(C)c1=O,101,96,73,-11
COc1cccc(-c2csc(-c3c(N)c(C(=O)c4ccc(Cl)cc4)n4ccccc34)n2)c1,103,/,/,35
CCOC(=O)C1CCCN(C(=O)c2cc(-c3ccc(F)cc3)nc3ccccc23)C1 (stereo not given),/,99,96,3
CCc1cccc(NC(=O)Cc2noc3ccccc23)c1,103,103,98,/
COC(=O)Nc1nc(-c2cccc(Br)c2)cs1,104,115,95,-7
O=C(CSc1nnc(COc2cccc3ccccc23)n1CC1CCCO1)NC1CC1 (stereo not given),101,87,70,-2
CCCCN(C)CC(O)Cn1cc(/C=C/C(=O)c2ccc(Br)cc2)c2ccccc21 (stereo not given),134,116,89,-10
CCC1CN(C(=O)N2CCC(C(=O)Nc3cc(C)ccc3C)CC2)c2ccccc2O1 (stereo not given),110,78,80,-2
O=C(CSc1nnc(-c2ccc(C(F)(F)F)cn2)s1)Nc1ccccc1,102,108,75,-11
N#Cc1ccc(/C=C2/N=C(SCC(=O)N3CCCC3)N(C3CCCCCC3)C2=O)cc1,/,76,95,-34
COc1ccc(Cn2c(O)c(/C=N/Nc3nc(C)cc(C)n3)c3ccccc3c2=O)cc1,/,102,95,-29
CCN1C(=O)C(C(=O)N(Cc2ccccc2)Cc2ccccc2)C2CC1(C)Oc1ccccc12 (stereo not given),99,114,90,/
Cc1[nH]nc(NC2=CC(=O)CC(C)(C)C2)c1-c1ccc(Cl)cc1,105,85,89,-31
Cc1ccccc1C(=O)Nc1ccc2nc(Nc3cccc(C(F)(F)F)c3)cc(C)c2c1,104,85,77,/
COc1ccc2c(CNCc3cccs3)c(C(=O)O)n(Cc3ccc(F)cc3Cl)c2c1,102,90,105,/
COc1ccccc1CNc1nc(-c2ccco2)nn1C(=O)c1ccccc1[N+](=O)[O-],102,102,72,-40
CNCC(=O)Nc1ccccc1C(F)(F)F,/,92,97,-9
CN(C(=O)c1ccc2c(=O)n3c(nc2c1)CCCCC3)c1ccccc1,105,112,99,1
CCCOC(=O)CC1Sc2ccc(C(F)(F)F)cc2NC1=O (stereo not given),102,78,91,10
COC(=O)C1CN(C(=O)c2ccccc2Cl)c2ccccc2O1 (stereo not given),104,85,79,-9
COC(=O)Sc1nnc(-c2ccc(C)cc2)o1,101,93,82,-19
Nn1cnnc1SC(CNS(=O)(=O)c1ccc(Cl)cc1)c1ccccc1 (stereo not given),/,96,93,-36
O=C(CCn1c(=O)oc2ccccc21)NC1CCCCC1,100,99,94,-18
COc1ccc(C2=NS(=O)(=O)N(C)C(C(=O)Nc3ccn(Cc4ccc(C)cc4)n3)=C2)cc1,104,/,/,-12
Cc1cccc(CSc2nc3ccncc3n2CC(=O)NCc2ccco2)c1,104,106,93,6
Cc1ccc2c(c1)NC(C(=O)N1CCN(c3ccc(F)cc3)CC1)NS2(=O)=O (stereo not given),95,/,/,-17
COc1cccc(Cn2nnc3c(=O)[nH]c(C4CCCN(C(=O)c5ccccc5Cl)C4)nc32)c1 (stereo not given),102,112,86,-8
CC(C)(C)C(=O)CSc1nc2c(cc1C#N)N1CCC2CC1,104,97,86,/
COc1ccc(-c2cc(NCc3ccc(C)cc3)n3cnnc3n2)cc1,110,110,83,2
CCN(CC)CCSc1nnc2c3cc(C)ccc3n(C)c2n1,103,96,93,-34
COc1cccc(-c2noc(=O)[nH]2)c1,105,/,/,1
CC1(c2ccc(Cl)cc2)CC(C)(C)N(C(=O)c2cccnc2)c2ccccc21 (stereo not given),101,61,50,/
O=C1CC(c2ccccc2)n2nc(NS(=O)(=O)c3ccccc3)nc2N1 (stereo not given),109,105,83,/
O=C(NCc1ccc2c(c1)OCO2)c1ccc(Cn2cc(Cl)cn2)cc1,100,97,76,-10
N#CCc1c(C#N)c(N)nc(N2CCCC2)c1C#N,/,91,83,-14
O=C(O)CC1(CC(=O)Nc2cccc(C(=O)O)c2)CCCC1,103,90,89,-24
CCCn1c(=O)c2c(C(F)(F)F)cc(-c3ccco3)nc2n(CCC)c1=O,/,89,93,-11
Nc1ncc(C(F)(F)F)cc1C(F)(F)F,101,99,81,-186
CCCc1cc(=O)[nH]c(SCC(=O)NCC23CC4CC(CC(C4)C2)C3)n1,/,104,84,-20
CCc1cccc(NC(=O)c2ccccn2)c1,/,94,92,-3
CC(C(=O)OCC(=O)c1ccc(F)cc1)N1C(=O)C2C3C=CC(C3)C2C1=O (stereo not given),103,103,90,15
COc1cc(Cl)c(NC(=O)c2cc(-c3ccncc3)n[nH]2)c(OC)c1,103,/,/,-9
COc1ccc(OC(=O)OCC(C)C)cc1,99,78,127,-9
Cc1ccc(-n2ncc(C(=O)NCCCN3CCCCC3)c2-n2cccc2)cc1,106,112,93,-13
Cc1ccccc1Nc1nc(NCCN(CC(C)C)CC(C)C)nc2c1cnn2C,107,80,41,-25
CC(C)Cn1c(=O)c2sccc2n2c(CCC(=O)N3CCC(N4CCCCC4)CC3)nnc12,93,/,/,-21
# The listing continues:
SMILES,GIV-Gai inh,Sa growth inh,Sa growth inh second temp,HCMV UL50-53 inh
Cc1nc2nc(CNc3ccc(Cl)cc3)[nH]n2c(=O)c1C,102,/,/,-25
Cc1ccc(-c2nonc2NC(=O)COc2ccc(C(C)C)cc2)cc1C,103,/,/,1
O=C(Cc1ccccc1)NCC(=O)N1CCN(c2ccccc2)CC1,99,103,93,-32
Cc1cccc(NC(=O)NCCN2CCOCC2)c1,99,105,97,-4
Cc1cccc(-c2cc(Nc3ccc(C(=O)NCC(C)C)cc3)ncn2)c1,104,/,/,2
CCCn1c(N)c(C(=O)CN2CCc3ccccc3C2)c(=O)[nH]c1=O,/,95,93,-4
COc1ccc(C(O)CCC(=O)O)cc1 (stereo not given),100,89,84,-27
O=C(NCC1CCCO1)C1CCCN1C(=O)Nc1ccc(Cl)cc1 (stereo not given),101,105,104,-2
Cc1nc2ccc(C(=O)NCc3ccccc3CN3CCCC3)cc2nc1C,/,115,111,0
CCCn1ccc2c(OCC(=O)NCc3ccc(C)cc3)cccc2c1=O,96,100,86,/
S=C1CCCN1c1ccccc1,104,113,109,10
Cc1cc(C)c(OCC(=O)Nc2cc(-c3nc4ncccc4o3)ccc2C)c(Cl)c1,99,99,79,/
O=c1[nH][nH]c(=S)n1C1Cc2ccccc2C1,104,85,78,-21
CCCCSC1=C(C#N)C(=O)NC(c2ccc(OC)cc2)S1 (stereo not given),103,91,55,6
CC1(C)CC(NC(=S)Nc2ccc(S(=O)(=O)N3CCOCC3)cc2)CC(C)(C)N1,/,105,91,-18
COc1ccc(C(=O)Nc2nonc2-c2ccc(OC)c(OC)c2)cc1Cl,100,102,85,2
CCCC1=C(C(=O)OCC)C(c2cc(OC)ccc2OC)n2c(s/c(=C\c3ccc([N+](=O)[O-])o3)c2=O)=N1 (stereo not given),115,/,/,-17
N#C/C(=C(/O)Cn1cc(S(=O)(=O)N2CCCC2)ccc1=O)c1nc2ccccc2[nH]1,/,92,84,-23
CCC(Sc1nc2ccncc2[nH]1)C(=O)N(Cc1ccccc1)C(C)C (stereo not given),109,104,88,/
CCOc1ccc(OCC)c(NC(=O)CCc2nc3cccnc3n2-c2ccccc2)c1,107,104,79,-1

# Copied from the list:
# Value of CCCn1ccc2c(OCC(=O)NCc3ccc(C)cc3)cccc2c1=O in GIV-Gai inh: 96
# Value of Cc1ccccc1Nc1nc(NCCN(CC(C)C)CC(C)C)nc2c1cnn2C in Sa growth inh second temp: 41
# Value of COC(=O)C1CN(C(=O)c2ccccc2Cl)c2ccccc2O1 (stereo not given) in GIV-Gai inh: 104
# Value of COc1ccc(C(O)CCC(=O)O)cc1 (stereo not given) in Sa growth inh second temp: 84

# Remaining list, next part.
SMILES,GIV-Gai inh,Sa growth inh,Sa growth inh second temp,HCMV UL50-53 inh
COc1ccc(S(=O)(=O)N2CCN(c3ccc(Cl)c(Cl)c3)CC2)c2ccccc12,109,112,106,9
CN1CCc2nc(NC3=NCCCCC3)sc2C1,/,120,98,-6
CC(NC(=O)C1CCCN(C(=O)N(C)C)C1)c1ccccc1 (stereo not given),102,96,88,-14
COc1ccc(C(=O)NCCc2csc(-c3ccc(Cl)cc3)n2)c(OC)c1,106,78,84,/
COc1ccc(C2c3c(n(C)c4ccccc34)C(=O)N2CC(=O)Nc2c(C)cc(C)cc2C)cc1 (stereo not given),102,110,90,/
CCOC(=O)c1cc(S(=O)(=O)N2CCN(c3cc(Cl)ccc3C)CC2)[nH]n1,102,82,81,/
COc1ccc(COC(=O)C2=C(C)NC(=O)NC2c2ccc(OC)c(OC)c2)cc1 (stereo not given),103,/,/,-16
CCCCNC(=O)C1c2cc(OC)c(OC)cc2C(=O)N(C)C1c1ccc(OC)cc1 (stereo not given),106,87,82,-27
Cc1ccc2oc(=O)n(CC(=O)OCCC(C)C)c2c1,105,103,100,-2
CN(C)c1nc(OCC(=O)NC(C)(C)C)nc(N(C)C)n1,101,101,100,-4
CC1CCC(N(C)c2nc(C(F)(F)F)nc3ccccc23)CC1 (stereo not given),/,63,89,1
CCc1c(O)nc2n(c1=O)CCS2,106,109,88,0
O=C1CCN(NC(=O)c2cccnc2)C(=O)N1,104,89,89,-19
Cc1cc(C(=O)NC2CC2)c2cccc(C)c2n1,108,/,/,-17
CCCCNC(=O)c1nn(C)c2c1CSc1ccccc1-2,103,123,98,-18
CCOC(=O)C1CCN(C(=O)C(C(=O)c2ccccc2)n2ccccc2=O)CC1 (stereo not given),/,88,93,4
COC(=O)CCCCC1SCC(NC(=O)OC)C1NC(=O)OC (stereo not given),100,110,88,2
CC(C)(C)c1ccc(N=C(C#N)C2=C(O)c3ccccc3C2=O)cc1,105,137,79,-5
CCn1c(COC(=O)c2ccccc2)nc2cc(S(=O)(=O)N(C)C)ccc21,/,99,82,-18
O=C(Nc1ccc(-c2nc3ccccc3o2)cc1)c1ccc(S(=O)(=O)N2CCCc3ccccc32)cc1,102,/,/,-24

# Structures shown so far that have a tert-butyl group, in the order listed:
SMILES,GIV-Gai inh,Sa growth inh,Sa growth inh second temp,HCMV UL50-53 inh
CSc1n[nH]c(NC(=O)c2ccc(C(C)(C)C)cc2)c1-c1ccccn1,105,96,92,-3
CC(C)(C)C(=O)CSc1nc2c(cc1C#N)N1CCC2CC1,104,97,86,/
CN(C)c1nc(OCC(=O)NC(C)(C)C)nc(N(C)C)n1,101,101,100,-4
CC(C)(C)c1ccc(N=C(C#N)C2=C(O)c3ccccc3C2=O)cc1,105,137,79,-5

# More compounds follow.
SMILES,GIV-Gai inh,Sa growth inh,Sa growth inh second temp,HCMV UL50-53 inh
CCC(=O)N(c1nnc(SCC(=O)c2cc(C)n(C)c2C)s1)C1CC1,/,84,91,-26
S=C1COC(c2ccc(Br)cc2)N1c1ccccc1 (stereo not given),/,84,93,-12
CC(C)c1ccc(-c2noc(C3CCCN(S(=O)(=O)c4ccccc4)C3)n2)cc1 (stereo not given),104,100,98,-5
Cc1cc(NC(=O)c2ccc(C)s2)n(-c2nc3ccccc3n2Cc2ccccc2F)n1,/,75,93,-7
CCOC(=O)c1ccccc1S(N)(=O)=O,108,78,90,-6
Cc1c(C(=O)N(C)CCc2ccccn2)sc2ncnc(N3CCN(c4ccccn4)CC3)c12,101,/,/,-9
O=C(COC(=O)Cc1ccc(F)cc1)NCc1ccco1,/,110,86,-23
